VDR inh: Inhibitors of the vitamin D receptor (VDR): qHTS. Vitamin D3 receptor (Homo sapiens), P11473. VDR-SRC2-3 peptide fluorescence polarization, 2 h. Potency, µM, for inactives: max response, negative = inhibition, usual class: inhibitors. actives 0.93% (n = 400,000). AID 504847, 2011; active = well fitted inhibition curve with a large enough effect; inconclusive = small, poorly fitted or top-dose-only effect, or another doubt; inactive = no such curve, though single readings can be large or run the other way; also: series mostly up to about 120 µM
Target sequence (P11473 whole entry, looked up): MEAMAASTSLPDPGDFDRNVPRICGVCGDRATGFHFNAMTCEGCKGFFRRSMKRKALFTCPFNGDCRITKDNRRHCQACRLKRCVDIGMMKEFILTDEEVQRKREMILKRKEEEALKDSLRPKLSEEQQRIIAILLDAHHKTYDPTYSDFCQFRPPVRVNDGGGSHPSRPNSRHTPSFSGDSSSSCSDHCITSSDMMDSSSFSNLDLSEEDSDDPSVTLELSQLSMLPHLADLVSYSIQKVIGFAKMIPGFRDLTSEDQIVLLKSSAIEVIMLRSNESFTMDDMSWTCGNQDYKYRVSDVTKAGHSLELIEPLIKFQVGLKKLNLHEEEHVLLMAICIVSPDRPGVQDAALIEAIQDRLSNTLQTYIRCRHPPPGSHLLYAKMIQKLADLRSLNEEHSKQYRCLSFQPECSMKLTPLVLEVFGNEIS
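FP read-out; VDR + SRC2-3 coactivator peptide; 23 nl compound by pintool; 2 h RT incubation; reagents held at 4 deg C, protected from light.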
* marks the source's active call; other numbers are inactive results; ? = inconclusive; & = joins results of further samples; [ ] = dose if it differs, or a comment. % is scaled to controls: 0 for no effect and ±100 for the full control effect; potency is read from the fitted curve at half-maximal effect. An excerpt; rates above refer to the full screens.

SMILES	VDR inh
CSc1nc(N)nc(SCC(=O)Nc2ccc(Cl)cc2)c1C#N	11%
NC(=O)CC1Nc2cccc3cccc(c23)NC1=O (stereo not drawn)	-6%
O=C1NCCc2c1[nH]c1ccc([N+](=O)[O-])cc21	-10%
Cc1ccc(S(=O)(=O)N(C)c2ccc(C(=O)NCC(c3cccs3)N3CCOCC3)cc2)cc1 (stereo not drawn)	-13%
CCc1ccccc1N(CC(=O)N1CCCCC1)S(=O)(=O)c1ccccc1	-24%
Cc1cccc(N(CC(=O)N2CCOCC2)S(C)(=O)=O)c1C	-4%
COc1cc2c(cc1OC)C(c1ccsc1)CC(=O)N2 (stereo not drawn)	1%
CCOC(=O)c1ccc([N+](=O)[O-])cc1NC(C)=O	-15%
Cc1ccc(N2C(=O)CSC23C(=O)N(CC(=O)NC2CCCCC2)c2ccccc23)cc1 (stereo not drawn)	13%
COc1cccc2cc(C(=O)n3ccc(C)n3)c(=O)oc12	4%
COc1cc(OC)cc(C(=O)N[C@H](C(=O)Nc2ccc(NC(C)=O)cc2)C(C)C)c1	7%
COc1cccc(NC(=O)CSc2nnc(Cc3cccn3C)n2-c2ccc(F)cc2)c1	0%
Cc1ccc(S(=O)(=O)N2CCC(C(=O)OCC(=O)N3CC(C)CC(C)C3)CC2)cc1C (stereo not drawn)	-11%
C=CCn1c2ccccc2n2nc(C)c(=O)nc12	4%
CCOc1ccccc1NC(=O)NNS(=O)(=O)c1cc(C)ccc1C	-1%
Cc1cc(C)n(-c2ccc(Oc3ccccc3)c(S(=O)(=O)O)c2)n1	4%
CC(=O)N1CCC(C(=O)Nc2ccc(S(=O)(=O)N3CCC(C)CC3)cc2)CC1	-5%
COc1ccc(Br)cc1/C=C/C(=O)c1ccc(NC(C)=O)cc1	?
Cc1cccc(C)c1NS(=O)(=O)c1ccc2c(c1)NC(=O)CO2	3%
CCNC(=O)c1ccccc1SCc1ccccc1	-4%
O=C(O)C1CCCN1S(=O)(=O)c1ccc(Cl)c(Cl)c1 (stereo not drawn)	29%
N#CC1=C(c2ccccc2)/C(=C/c2ccccc2)OC1=O	?
COc1ccc(-n2c(SCC(=O)Nc3ccc(Br)cc3)nc(O)cc2=O)cc1	-21%
CC(C)CC(=O)NN1CCCCC1	-6%
CC(/C=C/c1ccccc1)=N\NC(=O)CSc1ccccn1	6%
O=C(CCNC(=O)c1ccc(Cl)cc1)NCCCN1CCOCC1	-5%
Cc1ccc(-n2c(=O)[nH]c3ncccc3c2=O)cc1	0%
Cc1ccc(C)c(Cn2nnc3c(=O)[nH]c(C4CCCN(C(=O)C5CCC5)C4)nc32)c1 (stereo not drawn)	-5%
COc1ccc(/C=N\NC(=O)c2ccc(-c3ccccc3)cc2)cc1COC(C)=O	0%
CN(CCC#N)C(=O)CSc1ncnc2sc(-c3ccccc3)cc12	2%
Cc1ccc(Cc2c(C)nc3nc(SCC(=O)NCc4ccco4)nn3c2C)cc1	-8%
OCc1nc2ccccc2n1CCCOc1ccc(Br)cc1	7%
COC(=O)Cc1c(O)ccn(CCc2c[nH]c3ccc(OC)cc23)c1=O	3%
CC(=O)Oc1ccc(C(=O)Nc2cc(C)ccc2NC(=O)COc2ccccc2)cc1	10%
Cc1ccc(NC(=O)CN2CCC(Cc3ccccc3)CC2)cc1S(=O)(=O)N(C)C	-11%
CCCCSc1nnc(-c2ccc(C)cc2)n1C	-3%
O=C1C2CCCCN2C(=O)N1CCCCN1CCN(c2cccc(C(F)(F)F)c2)CC1 (stereo not drawn)	35%[activator]
Cc1ccc(O)c(C=Nc2cc(C)ccc2O)c1	13%
CC(C)(C)OC(=O)N1Cc2cc3ccccc3nc2C1CO (stereo not drawn)	7%
O=C(O)Cn1cnc2c(oc3ccccc32)c1=O	12%
CC1(NC(=O)CN2CCN(c3cnn(-c4ccccc4)c(=O)c3Cl)CC2)CCS(=O)(=O)C1 (stereo not drawn)	-7%
COc1ccc(Br)cc1C1CC(=O)Nc2c1c(C)nn2-c1nc(C)cc(C)n1 (stereo not drawn)	-6%
CCc1cc2c(NCCO)ncnc2s1	2%
CC(=O)SCC(=O)N=c1sc2cc(F)ccc2n1C	-12%
O=C(Cc1c(Cl)cccc1Cl)OCc1ccccn1	-8%
COCC(=O)NC1CC2CCCC(C1)N2Cc1ccccc1 (stereo not drawn)	-2%
CCN(CC)c1ccc(NC(=O)C2CCCN(S(=O)(=O)c3cnc[nH]3)C2)c(C)c1 (stereo not drawn)	-28%
COC(=O)c1cc(C(=O)OCC(=O)N(C)c2ccccc2)cc([N+](=O)[O-])c1	13%
COc1cccc(C(=O)NC(C)C(c2cccs2)N2CCN(C)CC2)c1 (stereo not drawn)	12%
CCOC(=O)CC1CCCCN1Cc1nc(-c2ccc(F)c(OC)c2)oc1C (stereo not drawn)	-8%
CCN1CCN(C2=C(NS(=O)(=O)c3ccccc3)C(=O)c3ccccc3C2=O)CC1	-19%
Cc1ccc(C(=O)N2CCN(c3ccc([N+](=O)[O-])c(NCc4ccco4)c3)CC2)cc1	7%
O=C(Cn1c(NCCCO)nc2ccccc21)c1ccc(Br)cc1	-10%
CC(=O)N1CCc2cc(S(=O)(=O)NC(CC(C)C)C(=O)NCCc3ccccc3)ccc21 (stereo not drawn)	-20%
COc1ccc(C2CC(=O)c3cnc(N4CCN(Cc5ccccc5)CC4)nc3C2)cc1 (stereo not drawn)	-27%
Cc1ccc(-c2nnc(N3CCCCC3)c3ccccc23)cc1S(=O)(=O)N1CCN(C)CC1	16%
CC(C(=O)Nc1ccccc1)N1C(=O)c2ccccc2C1=O (stereo not drawn)	12%
CC1(OC(=O)c2ccc(Cl)nc2)C(=O)C=C2C=C(c3ccsc3)OC=C2C1=O (stereo not drawn)	5%
COc1ccc(C(=O)Cn2cnc3ccc(Cl)cc3c2=O)cc1F	10%
O=C(O)Cn1ccc2ccccc21	-2%

Later entries:
SMILES	VDR inh
O=C(CCc1ccccc1)c1c(O)cc(O)cc1O	6%
CCOC(=O)c1scc(-c2ccccc2)c1S(=O)(=O)Nc1ccc(N(C)C)cc1	20µM*
O=C(NCCc1ccccc1Cl)C1CCC(=O)N(Cc2ccc(Cl)cc2)C1 (stereo not drawn)	-6%
COc1cc(C)ccc1OCCSc1nc2ccc(NC(=O)c3ccc(C)cc3)cc2s1	7%
COC(=O)Nc1ccc(S(=O)(=O)N(CCO)CCO)cc1	10%
Cc1ccc(S(=O)(=O)c2cnc(SCC(=O)Nc3cc(C)cc(C)c3)nc2N)cc1	2%
CCn1c(SCc2cccc(C)c2)nnc1-c1ccc(C)cc1	-8%
COc1ccc(CN2C(=O)c3cccnc3C2=O)cc1S(=O)(=O)N(C)Cc1ccco1	-14%
O=C1/C(=C/c2ccc(Cl)cc2)NC(=S)N1Cc1cccnc1	-6%
Cc1ccc(S(=O)(=O)N(C)C)cc1NC(=O)Nc1c(-c2ccccc2)noc1C	4%
CN1CCN(C(=O)/C(=C/c2ccc(N(C)C)cc2)NC(=O)c2ccccc2)CC1	-2%
COc1ccccc1NC(=O)C/C(N)=N/O	12%
O=[N+]([O-])/C(C(Cl)=C(Cl)Cl)=C(/NC1CC1)Sc1ccccc1	?
CC(=O)c1ccc(Sc2nnc(C)s2)c([N+](=O)[O-])c1	2%
O=C(Cn1nnc(-c2ccccc2Cl)n1)Nc1cccc(S(=O)(=O)N2CCCC2)c1	3%
C[C@H](CO)N1C[C@H](C)[C@@H](CN(C)CC2CCCCC2)Oc2c(NS(=O)(=O)c3ccccc3)cccc2C1=O	3%
N#Cc1ccsc1NC(=O)COC(=O)c1ccc2ccccc2c1	-3%
COC(=O)c1ccccc1NC(=O)Nc1nnc(N2CCC(C)CC2)s1	11%&-4%
O=C(Nc1ccccc1F)C1CCCN(S(=O)(=O)c2ccc(-n3cnnn3)cc2)C1 (stereo not drawn)	-7%
CCCCOc1ccc(-c2cc(C(F)(F)F)c(C#N)c(SCC(=O)O)n2)cc1	-9%
Fc1ccc(C(c2ccc(F)cc2)N2CCN(C/C=C/c3ccccc3)CC2)cc1	0%&-17%&-4%
CCOc1ccc(C(CC(=O)O)NC(=O)C(c2ccccc2)c2ccccc2)cc1OC (stereo not drawn)	-14%
Oc1ccc(-c2nc3ccc4ccccc4c3c3c2CCC3)cc1O	-24%
COc1ncc2nc(-c3cn(C)c4ccccc34)c(=O)n(-c3ccccc3)c2n1	-8%
Cc1ccc(C(=O)Nc2nnc(-c3ccco3)o2)cc1	-3%
CCCCCCCCCCCCCCCCCCCCCCO	19%&3%
COc1ccc(CC(=O)Nc2ccc3nc(Nc4cccc(Cl)c4)cc(C)c3c2)cc1	3%
O=C(/C=C/c1ccc(S(=O)(=O)N2CCOCC2)cc1)NCc1ccc(Cl)cc1	-16%
O=C(Nc1nc(-c2ccccc2)cs1)C1c2ccccc2Oc2ccccc21	5%
NS(=O)(=O)c1ccc(NC(=O)c2ccccc2C(=O)N2CCCCC2)cc1	6%

Brought forward from above: 2 entries; new compounds follow.
SMILES	VDR inh
O=C(Nc1nc(-c2ccccc2)cs1)C1c2ccccc2Oc2ccccc21	5%
NS(=O)(=O)c1ccc(NC(=O)c2ccccc2C(=O)N2CCCCC2)cc1	6%
Cc1cc(=O)oc2c(C)c(OCC(=O)NCc3ccccn3)ccc12	-20%
O=C(Nc1ccc(Br)cn1)c1cccc(S(=O)(=O)N2CCCC2)c1	-7%
CCn1c(SCc2ccc(OC)c(F)c2)nc2ccccc2c1=O	3%
CCCn1c(O)c(N=NC(=O)CNC(=O)/C=C/c2ccc(OC)cc2)c2ccccc21	-8%
COc1ccc(-c2onc(C)c2-c2cnn(-c3ccccc3)c2)c(O)c1	2%
CC1=C(C(=O)Nc2cc(Cl)ccc2C)C(c2ccccc2F)n2ncnc2N1 (stereo not drawn)	13%
O=C(Nc1ccc(N2C(=O)C3CCCCC3C2=O)cc1Cl)c1cccs1 (stereo not drawn)	-11%
C=C(Cl)COc1ccc2c(CC)cc(=O)oc2c1	-20%
CCCCCN(C(=O)COC(=O)CSc1ccc([N+](=O)[O-])cc1)c1c(N)n(CCCC)c(=O)[nH]c1=O	-3%
CCN(CC)/C(=N\S(=O)(=O)c1ccccc1C)c1ccccc1	-2%
COC(=O)c1cccc(NC(=O)CSc2ncn[nH]2)c1	8%
O=C(CCCSc1nc2ccccc2[nH]1)NCc1ccc(Cl)cc1	7%
COc1ccc(CCNS(=O)(=O)c2cccc(S(=O)(=O)N3CCCC3)c2)cc1OC	23%
Cc1c(C(=O)OCc2nnc(-c3ccccc3)o2)oc2ccccc12	-5%
CC(C)c1c(O)nc(SCCN(C)C)[nH]c1=O	-7%

Part of the list above, reformatted:
Compound,VDR inh
CCCn1c(O)c(N=NC(=O)CNC(=O)/C=C/c2ccc(OC)cc2)c2ccccc21,-8%
COc1ccc(-c2onc(C)c2-c2cnn(-c3ccccc3)c2)c(O)c1,2%
CC1=C(C(=O)Nc2cc(Cl)ccc2C)C(c2ccccc2F)n2ncnc2N1 (stereo not drawn),13%
O=C(Nc1ccc(N2C(=O)C3CCCCC3C2=O)cc1Cl)c1cccs1 (stereo not drawn),-11%
C=C(Cl)COc1ccc2c(CC)cc(=O)oc2c1,-20%

(listing goes on)
SMILES	VDR inh
CCOc1cc(C2NC(=O)c3c(sc4c3CCN(C)C4)N2)ccc1OC(=O)c1ccc(F)cc1 (stereo not drawn)	1%
Cn1cccc1Cc1nnc(SCC(=O)Nc2ccc3c(c2)OCO3)n1CCc1ccccc1	-8%
CN1CCN(CC(O)COc2ccccc2)CC1 (stereo not drawn)	4%
CCOc1ccccc1N(C)C(=O)CCS(=O)(=O)c1ccc2c(c1)NC(=O)CO2	4%
CCOc1cccc(C(=O)Nc2ccc(NC(=O)c3cc4ccccc4o3)c(OC)c2)c1	2%
Cc1ccccc1C(=O)OCC(=O)N(C)c1ccccc1	-2%
CC(C)C(=O)NNC(=O)C1CC1(c1ccccc1)c1ccccc1 (stereo not drawn)	5%
CC1CN(S(=O)(=O)c2cccc(C(=O)OCC(=O)c3cccs3)c2)CC(C)O1 (stereo not drawn)	8%
COC(=O)c1ccccc1NC(=O)Nc1cccs1	-11%
CSc1nc2c(c(=O)[nH]c(=O)n2C)n1Cc1ccccc1Cl	-14%
O=C(NCc1n[nH]c(=S)n1-c1ccc(F)cc1)c1ccc(S(=O)(=O)N2CCCC2)cc1	-10%
O=C(O)C(Cc1c[nH]c2ccccc12)NS(=O)(=O)c1ccc(Br)cc1 (stereo not drawn)	-2%
COc1ccc(-c2c(C#N)c(N)nc3sc(C(=O)c4ccccc4)c(N)c23)cc1	-15%
COc1ccc([C@H]2CC(=O)C=C(c3cc4ccccc4s3)C2)cc1	-20%
O=C(COC(=O)/C=C/c1ccc(F)cc1)Nc1ccc(S(=O)(=O)N2CCOCC2)cc1	2%

The closing 2 compounds of the section above come first, to join the parts:
SMILES	VDR inh
COc1ccc([C@H]2CC(=O)C=C(c3cc4ccccc4s3)C2)cc1	-20%
O=C(COC(=O)/C=C/c1ccc(F)cc1)Nc1ccc(S(=O)(=O)N2CCOCC2)cc1	2%
O=C(Nc1ccccc1)Nc1ccc(F)cc1F	-4%
COc1ccc(C)cc1-n1ccn(CC(=O)Nc2ccc(Br)cc2F)c(=O)c1=O	-8%
CN(CC(=O)Nc1cccc(F)c1)C(=O)c1ccc(OCc2ccccc2)cc1	5%
CC(NC(=O)c1ccc(NC(=O)c2ccco2)cc1)c1ccccc1 (stereo not drawn)	-2%

Sorted by molecular weight (largest number first): part of the list above.
SMILES	VDR inh
O=C(NCc1n[nH]c(=S)n1-c1ccc(F)cc1)c1ccc(S(=O)(=O)N2CCCC2)cc1	-10%
O=C(O)C(Cc1c[nH]c2ccccc12)NS(=O)(=O)c1ccc(Br)cc1 (stereo not drawn)	-2%
COc1ccc(-c2c(C#N)c(N)nc3sc(C(=O)c4ccccc4)c(N)c23)cc1	-15%
CN(CC(=O)Nc1cccc(F)c1)C(=O)c1ccc(OCc2ccccc2)cc1	5%
CC(NC(=O)c1ccc(NC(=O)c2ccco2)cc1)c1ccccc1 (stereo not drawn)	-2%
O=C(Nc1ccccc1)Nc1ccc(F)cc1F	-4%
